Source: PubChem BioAssay
CapD inh: CapD enzyme inhibition; purified CapD enzyme, fluorescence intensity read-out; hits give low values; some hits fall short of the stated cut; z-score (no concentration beside the values); 0.23% of 140,000 active;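 active = z-score under -4 in either of two replicates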;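 note: stock transfer was 100 nL into about 40 µL; score is relative to mean and spread of the plate; one replicate is shown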
AID504770: growth inhibitors of E. coli YBA685 in a screen for V. cholerae RctB (chromosome II replication) inhibitors; E. coli YBA685 rctB-dependent plasmid, OD600 growth, 3 h; hits give low values; z-score (concentration not given with the values); 0.27% of 130,000 active; AID 504770;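 active = z-score under -2 on both plates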;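 note: wells of about 30 µL received 100 nL stock; score is relative to mean and SD of the test wells; the first replicate is given; strong numbers were not always called active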
* hit, by the source's call; i = inactive; / = not tested or not shown.

SMILES | CapD inh | AID504770
CC1CCCCC12NC(=O)N(CCCCN1C(=O)c3ccccc3C1=O)C2=O (centres undefined) | / | 0.35
CCN1CCc2c(OCC(=O)N3CCC(Cc4ccccc4)CC3)cccc2C1=O | 0.11 | -0.4
CCc1cccc2c(=O)c(CN(C)C)c(C)[nH]c12 | 3 | 2
N#Cc1ccc(-c2cccs2)[nH]c1=S | 0.085 | 0.65
CCNC(=O)NC(=O)Cn1cc(C(F)(F)F)ccc1=O | / | -0.55
CCC(=O)N1c2c(C)cc(C)cc2-c2c(ssc2=S)C1(C)C | -0.73 | /
CO/N=C(\C(=O)N[C@@H]1C(=O)N2C(C(=O)O)=C(COC(C)=O)CS[C@H]12)c1csc(N)n1 (stereo in doubt) | -0.78 | /
O=S(=O)(c1ccc(Cl)nc1)N(Cc1ccccc1)Cc1ccccc1 | 0.06 | 0.05
CCOC(=O)N1CCN(C(=O)c2ccc3c(=O)n(-c4ccccc4)c(SCc4nc5ccccc5[nH]4)nc3c2)CC1 | 0.16 | /
C/C(=C\C(=O)c1ccc(C)cc1)N1CCOCC1 | -0.18 | -0.2
Cc1nn(C)c(C)c1S(=O)(=O)N(CC(=O)N1CCn2c1nc1ccccc12)c1ccc(C(C)C)cc1 | -0.83 | 1.3
CCOc1cc2sc(N3CCC(C(=O)NCCCN4CCN(C)CC4)CC3)nc2cc1Br | -0.065 | -0.25
CC(C)Cc1nnc(NC(=O)CCN2C(=O)/C(=C/c3ccc4c(c3)OCO4)SC2=S)s1 | 0.2 | /
CC(C)COC(=O)n1n[n+]([O-])c2ccccc21 | -0.68 | -0.9
O=C(CSc1oc(-c2ccco2)nc1S(=O)(=O)c1ccc(Cl)cc1)NC1CCCCC1 | -0.01 | -0.35
COCCN(C1CCN(S(=O)(=O)c2ccccc2)CC1)S(=O)(=O)c1ccc(Cl)cc1 | -0.37 | /
CCOC(=O)c1csc(-c2cc(C)on2)n1 | 0.21 | -0.75
CCN(CC)S(=O)(=O)c1ccc(NCCOC)c(C(=O)O)c1 | / | -1.4
Cc1nnc(N2CCCC(C(=O)NC3CC3)C2)c2nn(-c3ccccc3)c(C)c12 (centres undefined) | 5.9 | 0.85
O=C1NNS(=O)(=O)c2ccccc21 | / | -2.3
CN(Cc1nc2ccccc2n1CCc1ccccc1)S(=O)(=O)c1ccccc1 | 0.01 | 1.3
Cc1cc(C)cc(-n2sc3c(c2=S)-c2ccc(C)cc2NC3(C)C)c1 | -0.78 | /
O=C(NC1CS(=O)(=O)CC1NCc1ccccc1)c1ccccc1 (centres undefined) | -0.01 | /
Cc1c(C(=O)NN)nc2ccccn12 | / | 0.55
Cc1ccc(C2(O)C(=O)c3ccccc3C2=O)c(O)c1C | -0.48 | 0.05
COC(=O)C(Cc1ccc([N+](=O)[O-])cc1)NC(=O)c1ccc(C)cc1 (centres undefined) | -0.78 | /
CCc1nc2c3ccccc3ncn2n1 | / | 0.15
N#CC1(NC(=O)CN2CCN(c3ccccc3Cl)CC2)CCCC1 | / | 1.5
Cc1cc(C)c2[nH]c(=O)c(CN(CCN3CCOCC3)C(=S)NCC3CCCO3)cc2c1 (centres undefined) | / | -0.35
O=C(CC1Nc2ccccc2NC1=O)NC1CCCCC1 (centres undefined) | 0.72 | -0.05
Cc1cc(N2C(=O)CS(=O)(=O)C2c2ccccc2[N+](=O)[O-])ccc1Br (centres undefined) | -0.58 | /
Cc1ccc(-c2csc(-c3ccccc3N)n2)cc1 | 15 | 0.6
Cc1c(NC(=O)CCC(=O)O)c(=O)n(-c2ccccc2)n1C | -0.38 | /
CCC(C(=O)O)n1nnc(-c2ccsc2)n1 (centres undefined) | / | 1.2
Cc1ccc(-n2c(C)cc(=O)cc2C)c(C)c1 | 49 | 0.4
Cc1ccc(Nc2nnc(-c3ccccc3)c3ccccc23)cc1 | -0.045 | -0.1
CCOc1ccc(NC(=O)CSc2nc3cc(C(=O)NCc4ccco4)ccc3c(=O)n2-c2ccc(F)cc2)cc1 | -1.3 | /
Cc1ccc(Cn2c(=O)oc3ccccc32)cc1 | 0.24 | 0.85
O=C(NCCCN1CCOCC1)c1ccc2c(=O)n(CC3CCCO3)c(SCc3cccc([N+](=O)[O-])c3)nc2c1 (centres undefined) | 0.1 | /
O=C(NNC(=O)c1cccc(O)c1)OCc1c(F)cccc1Cl | -0.02 | /
CSC1=NCCCN1C(=O)c1c(-c2ccccc2)noc1C | -0.98 | /
CCN(CC)C(=O)CC(c1ccccc1)c1ccco1 (centres undefined) | 0.89 | -0.2
COc1ccc(NC(=O)CC(c2ccccc2)c2ccco2)cc1 (centres undefined) | -0.16 | -0.65
CCC(=O)NC(=S)Nc1cccc(Cl)c1N1CCOCC1 | -0.51 | 0.3
CC(=O)c1c(C)oc2ccc(N(C(=O)c3ccccc3)S(=O)(=O)c3ccc4ccccc4c3)cc12 | 0.025 | /
Cc1ccccc1C(=O)N1CCC(C(=O)N2CCCc3ccccc32)CC1 | / | 0.1
CC(C)(C)c1ccc(-c2ncc(-c3cccc([N+](=O)[O-])c3)s2)cc1 | -0.71 | /
CCOC(=O)c1cn(C2CC(O)(O)C3OCC2O3)nc1N (centres undefined) (tested in a mixture with another compound) | 0.24 | -1.2
CCn1c(=N)c(S(=O)(=O)c2ccccc2)cc2c(=O)n3ccccc3nc21 | 2.8 | -0.35
CCC1(CC)Cc2ccccc2C(=C(C#N)C#N)N1 | / | 0.45
Cc1ccc(-c2nnc(SCc3ccc(C#N)cc3)o2)cc1 | / | -0.1
COc1ccc(CCNC(=O)CSc2nc3ccc([N+](=O)[O-])cc3s2)cc1OC | 0.46 | /
O=C(Nc1nnc(CCN2CCOCC2)s1)c1ccc(Cl)cc1 | -0.33 | -0.25
N/C(=N/S(=O)(=O)c1cc(C(F)(F)F)cc(C(F)(F)F)c1)c1ccc(Cl)cc1 | -0.71 | /
CCCCC(C(=O)O)C(=O)O | 0.52 | /
CCOc1ccc(Oc2nc3ccccc3nc2Cc2ccccc2)cc1 | -0.62 | /
OC(CSc1ccc(Cl)cc1)CN1CCN(c2cccc(Cl)c2)CC1 (centres undefined) | -0.17 | /
COc1ccccc1-n1nnnc1SCc1ccccc1 | -1.1 | 0.25
Cc1ccc(N2Cc3ccccc3OC(C)C2=O)cc1 (centres undefined) | -0.18 | -0.65
CC(C)CNS(=O)(=O)c1ccc(NC(=O)c2cccnc2)cc1 | 0.36 | 0.2

Carrying on.
SMILES | CapD inh | AID504770
Cc1ccc(-c2noc(CN3CCN(c4ccccc4F)CC3)n2)cc1 | -0.29 | 0.75
O=C(NCCOCCO)c1ccc(-c2ccccn2)s1 | -0.64 | /
O=C(Nc1noc2c1COc1ccccc1-2)N1CCC(Cc2ccccc2)CC1 | 0.35 | 0.55
O=C(Cn1c2ccccc2c2cn[nH]c(=O)c21)NCC1CCCO1 (centres undefined) | 16 | 0.55
CCC(C)(C)NC(=O)c1ccc2c(c1)OCCO2 | 0.26 | -0.15
OC(CNCCNc1ccc(C(F)(F)F)cn1)Cn1ccc2ccccc21 (centres undefined) | 0.51 | -0.25
CN1C(=O)C/C(=N\O)N(C)C1=O | 2.7 | -1.1
CCn1c2ccccc2c2cc(N=C=S)ccc21 | / | 0.3
O=C(NCCSCc1ccco1)Nc1cc(Cl)cc(Cl)c1 | 0.21 | /
COc1ccc(NC(=O)C(C)N2CCN(C)CC2)cc1 (centres undefined) | / | 0.2
COCC(=O)NCc1ccc2c(c1)cc(C)n2C | -0.32 | 0.6
S=C(NC1CC1)N1CCCN(Cc2cccc3ccccc23)CC1 | -1.7 | 0.85
O=Nc1c(O)[nH]c2ccccc12 | -0.59 | /
C(=N\[n+]1ccccc1)/c1ccccc1 | 0.055 | 1.1
O=C(/C=C/c1ccc(F)cc1)/C=C/c1ccc(F)cc1 | -1 | -0.65
Cn1c(NC(=O)Cc2ccc(F)cc2)nc2ccccc21 | 0.67 | -0.9
N=c1oc2ccc(Cl)cc2cc1C(N)=O | / | 0.05
Nc1ccc2nc(SCc3ccc(F)cc3)sc2c1 | -0.16 | -1.3
C=CCSc1ncnc2sc3c(c12)CCC(C)C3 (centres undefined) | -0.43 | -0.7
Cc1ccc(C(=O)NCCc2csc3nc(-c4cccc(C)c4)nn23)cc1 | / | 0.05
CCOC(=O)C(NC(=O)c1ccc(F)cc1)(Nc1nc2ccccc2nc1C(F)(F)F)C(F)(F)F (centres undefined) | -0.8 | /
Cc1ccc(S(=O)(=O)CCC(=O)O)cc1C | -0.11 | 1.8
Cc1cccc(S(=O)Cc2ccc(C(=O)N3CCc4ccccc43)o2)c1 (centres undefined) | -1.6 | 0.65
CCOC(=O)c1cc(C(C)(C)C)[nH]c(=S)c1C#N | 0.54 | -0.85
O=C(O)c1ccccc1Nc1ccn2c(=O)c3ccccc3nc2n1 | / | -0.9
COC(=O)c1sccc1N=CC1=C(O)C(c2ccccc2)CCC1=O (centres undefined) | 0.035 | -0.35
N#CCN(CC#N)C(=O)Cc1ccc(Br)cc1 | 0.24 | -0.4
O=C(Nc1ccc2ccccc2c1)C1CCCN(S(=O)(=O)c2ccccc2)C1 (centres undefined) | 1.8 | -0.9
Cc1cc2c(cc1NC(=O)CC13CC4CC(CC(C4)C1)C3)n(C)c(=O)n2C | -0.045 | -0.6
O=C(CNC(=O)c1ccc([N+](=O)[O-])cc1)NCC(=O)NC(Cc1c[nH]c2ccccc12)C(=O)OCc1ccccc1 (centres undefined) | 0.94 | /
CCOC(=O)CCc1c(C)nc(SCCCn2c(=O)[nH]c3ccccc32)c(C#N)c1C | -0.11 | -1.4
COc1ccc(OC)c(CCCc2cc(OC)ccc2OC)c1 | 0.86 | -0.05
CCC1C(=O)CC(c2ccco2)NC1c1ccco1 (centres undefined) | / | 0.15
Cn1cccc1C(=O)Nc1ccc(S(=O)(=O)N2CCOCC2)cc1 | / | 0.15
Cc1cc(=O)c(C(=O)NCc2ccccc2CN2CCCC2)nn1-c1ccccc1 | / | -1.4
COc1ccc(C(=O)N2CCSC2=S)cc1OC | -1.4 | -0.4
Cc1cnc2c(c1)C(=Nc1ccccc1)c1ccccc1-2 | -1.1 | -0.5
N#CC1=C(N)Oc2c(c(=O)oc3ccccc23)C1c1ccc(N2CCOCC2)c([N+](=O)[O-])c1 (centres undefined) | -0.38 | /
COc1ccc(N(C(C)C(=O)N=Nc2c(O)[nH]c3ccccc23)S(C)(=O)=O)cc1 (centres undefined) | -0.74 | -0.55
CS(=O)(=O)c1ccc(NC(=O)/C=C/c2ccc3c(c2)OC(F)(F)O3)cc1 | 0.06 | /
O=C(Nc1ccccc1-c1nc2ccccc2s1)c1ccc([N+](=O)[O-])cc1 | -0.9 | /
Cc1ccc(S(=O)(=O)NC(=O)N2CC3CC(C2)c2cccc(=O)n2C3)cc1 (centres undefined) | / | -0.35
CN(c1ncnc2c1cnn2-c1ccccc1)C1CCCCC1 | -0.61 | 2.2
CC1CCN(CCNC(=O)c2ccc(Cn3c(=S)[nH]c4ccc(Br)cc4c3=O)cc2)CC1 | -0.47 | /
Cc1ccc2cnn(CC(=O)NCCN3CCOCC3)c2c1 | -1.2 | -0.65
CC1(C)CC(OC(=O)CC(=O)OC2CC(C)(C)NC(C)(C)C2)CC(C)(C)N1 | i | 0.2
O=C(CCS(=O)(=O)c1ccc(F)cc1)N1CCCC1c1nc2ccccc2s1 (centres undefined) | / | 0.7
C=CCc1c(C)[nH]c2ccc(N)cc2c1=O | 49 | -0.5

An excerpt of these results, with two lines to a compound:
Values in the order – CapD inh | AID504770
CCC1C(=O)CC(c2ccco2)NC1c1ccco1 (centres undefined)
 : / | 0.15
Cn1cccc1C(=O)Nc1ccc(S(=O)(=O)N2CCOCC2)cc1
 : / | 0.15
Cc1cc(=O)c(C(=O)NCc2ccccc2CN2CCCC2)nn1-c1ccccc1
 : / | -1.4
COc1ccc(C(=O)N2CCSC2=S)cc1OC
 : -1.4 | -0.4
Cc1cnc2c(c1)C(=Nc1ccccc1)c1ccccc1-2
 : -1.1 | -0.5
N#CC1=C(N)Oc2c(c(=O)oc3ccccc23)C1c1ccc(N2CCOCC2)c([N+](=O)[O-])c1 (centres undefined)
 : -0.38 | /
COc1ccc(N(C(C)C(=O)N=Nc2c(O)[nH]c3ccccc23)S(C)(=O)=O)cc1 (centres undefined)
 : -0.74 | -0.55
CS(=O)(=O)c1ccc(NC(=O)/C=C/c2ccc3c(c2)OC(F)(F)O3)cc1
 : 0.06 | /
O=C(Nc1ccccc1-c1nc2ccccc2s1)c1ccc([N+](=O)[O-])cc1
 : -0.9 | /
Cc1ccc(S(=O)(=O)NC(=O)N2CC3CC(C2)c2cccc(=O)n2C3)cc1 (centres undefined)
 : / | -0.35
CN(c1ncnc2c1cnn2-c1ccccc1)C1CCCCC1
 : -0.61 | 2.2
CC1CCN(CCNC(=O)c2ccc(Cn3c(=S)[nH]c4ccc(Br)cc4c3=O)cc2)CC1
 : -0.47 | /
Cc1ccc2cnn(CC(=O)NCCN3CCOCC3)c2c1
 : -1.2 | -0.65
CC1(C)CC(OC(=O)CC(=O)OC2CC(C)(C)NC(C)(C)C2)CC(C)(C)N1
 : i | 0.2
O=C(CCS(=O)(=O)c1ccc(F)cc1)N1CCCC1c1nc2ccccc2s1 (centres undefined)
 : / | 0.7
C=CCc1c(C)[nH]c2ccc(N)cc2c1=O
 : 49 | -0.5

(further entries)
SMILES | CapD inh | AID504770
O=C(Cc1ncc(C(F)(F)F)cc1Cl)NCc1ccc(Cl)cc1 | 0.38 | /
CCN(CC)C(=O)Oc1nnc(SC(C)C)n1-c1ccc(Cl)c(Cl)c1 | 10 | -0.5
O=C(Oc1ccc(C=Nc2ccccc2Br)cc1)c1ccccn1 | -0.89 | 0.65
CCc1ccc(C(=O)Nn2cnc3ccccc3c2=O)cc1 | 0.24 | 0.4
CC1=C(CC(=O)N2CCN(C(c3ccc(F)cc3)c3ccc(F)cc3)CC2)c2cc(F)ccc2/C1=C\c1ccc(S(C)=O)cc1 (centres undefined) | -1.9 | /
Cc1nc2c(sc3nc4c(cc32)COC(C)(C)C4)c(=O)n1Cc1ccccc1 | 0.17 | 0.15
COC(=O)CSc1nnc(SC)n1C | 0.43 | -0.1
Cc1ccc(N2CCSC2c2ccco2)cc1 (centres undefined) | -0.14 | 0.8
O=C(NCCN1CCOCC1)c1ccncc1 | / | -0.45
